CBX7 inh: CBX7 chromodomain binding inhibitors, primary screen, biochemical, AlphaScreen; 1.1% of 66,000 active; Chromobox protein homolog 7 (Homo sapiens), O95931; AlphaScreen His6-CBX7 / biotin-H3K27me3 peptide binding; hits give low values; normalised signal (fraction of DMSO) (concentration not given with the values); in the data active means normalised signal below about 0.5;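 further: 100 nL library stock added to about 20 µL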
Target sequence (O95931 whole entry, looked up): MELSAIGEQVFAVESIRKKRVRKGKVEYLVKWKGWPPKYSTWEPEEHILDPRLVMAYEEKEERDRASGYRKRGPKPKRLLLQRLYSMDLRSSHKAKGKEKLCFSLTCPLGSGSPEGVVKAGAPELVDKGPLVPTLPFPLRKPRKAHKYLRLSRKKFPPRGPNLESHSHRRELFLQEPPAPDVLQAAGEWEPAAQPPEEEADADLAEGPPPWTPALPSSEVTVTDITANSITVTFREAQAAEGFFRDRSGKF
CBX7 inh z-score: recorded beside CBX7 inh, whose call it bears; z-score; measured here: z-score of CBX7 signal; some inactives read as strong as hits; reference of the scale not given here;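 same signal on another scale; lower means less binding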
The depositor's hits bear a star; & = joins results of further samples. These rows are one share of the data; rates above refer to the full screens.

How did CCOc1ccccc1-n1cnc2cc(C(=O)NCCN3CCOCC3)ccc21 do in these assays?
CBX7 inh: 0.99; CBX7 inh z-score: -0.012

What do the screens show for `O=C(Cn1c(NCCCO)nc2ccccc21)c1ccc(Cl)cc1`?
CBX7 inh: 1; CBX7 inh z-score: 0.99

What do the screens show for `COc1ccc(-c2nc3ccccc3o2)cc1NC(=O)COc1cccc(C)c1`?
CBX7 inh: 0.97; CBX7 inh z-score: -0.73

How did Cc1cc(C)c(Cc2c(C)nc3c(C(=O)NCCN4CCOCC4)cnn3c2C)c(C)c1 do in these assays?
CBX7 inh: 0.97; CBX7 inh z-score: -0.79

How did COc1ccc(Br)cc1CNC(=O)c1ccc2nc(N3CCOCC3)sc2c1 do in these assays?
CBX7 inh: 1; CBX7 inh z-score: 1.1

What do the screens show for `COc1ccc(CCN2C(=O)CCC2(C)C(=O)NC2CCCCC2)cc1OC` (stereo not drawn)?
CBX7 inh: 0.99; CBX7 inh z-score: -0.18

How did COCCNC(=O)C1CCCN(Cc2nc(-c3ccc(OC)cc3)oc2C)C1 (stereo not drawn) do in these assays?
CBX7 inh: 1; CBX7 inh z-score: 0.19

What do the screens show for `CC(C)Cc1cc(C(=O)NCc2cccs2)no1`?
CBX7 inh: 1; CBX7 inh z-score: 0.89

How did CCN1CCN(c2cc(C)c3cc(NC(=O)c4cccc(Cl)c4)ccc3n2)CC1 do in these assays?
CBX7 inh: 1.1; CBX7 inh z-score: 0.65

Results for O=C(CC1Oc2ccccc2NC1=O)NCCN1CCOCC1 (stereo not drawn) ?
CBX7 inh: 1; CBX7 inh z-score: 1.9

What do the screens show for `COc1ccc(CCC(=O)Nc2ccc(-c3noc(COc4ccc(Cl)c(C)c4)n3)cc2)cc1`?
CBX7 inh: 0.72; CBX7 inh z-score: -1.1

How did CCN1CCN(c2ncc(C(=O)Nc3ccccc3OC)c3ccccc23)CC1 do in these assays?
CBX7 inh: 1.7; CBX7 inh z-score: 1.4

How did Cc1ccc(CNC(=O)c2cnn3c(C)c(Cc4ccc(F)cc4Cl)c(C)nc23)cc1 do in these assays?
CBX7 inh: 1; CBX7 inh z-score: 1.1

What do the screens show for `COc1ccc(C(=O)Nc2ccc(Cl)c(-c3nc4ccc(C)cc4o3)c2)cc1`?
CBX7 inh: 0.87; CBX7 inh z-score: -1.6

How did COc1ccc2cc(CCNS(=O)(=O)c3ccc(C)cc3)c(=O)[nH]c2c1 do in these assays?
CBX7 inh: 1; CBX7 inh z-score: 0.28

Results for Cc1ccccc1CN1C(=O)c2ccccc2Sc2ccc(C(=O)NC3CCCC3)cc21 ?
CBX7 inh: 0.99; CBX7 inh z-score: -0.31

How did CC(CCc1ccccc1)NC(=O)CN1C(=O)COc2ccc(S(=O)(=O)N3CCOCC3)cc21 (stereo not drawn) do in these assays?
CBX7 inh: 1.1; CBX7 inh z-score: 3.2

What do the screens show for `Cc1ccc(N(CC(=O)NCCc2ccc(Cl)cc2)S(=O)(=O)c2cccnc2)cc1`?
CBX7 inh: 1; CBX7 inh z-score: 0.38

Results for O=C(Nc1c(F)cccc1F)c1cn(-c2ccc(F)cc2F)c(=O)c2ccccc12 ?
CBX7 inh: 0.94; CBX7 inh z-score: -0.81

What do the screens show for `COc1ccc(-n2c(Cc3cc(=O)[nH]c(=O)[nH]3)nnc2SCC(=O)Nc2nc(C)cs2)cc1`?
CBX7 inh: 0.95; CBX7 inh z-score: -1.3

Results for CCCN(C(=O)c1ccc2c(=O)n3c(nc2c1)CCCCC3)c1cccc(Cl)c1 ?
CBX7 inh: 0.98; CBX7 inh z-score: -0.044

How did COc1ccc(-c2nc(CS(=O)(=O)CC(=O)NCCCN3CCN(C)CC3)c(C)o2)cc1 do in these assays?
CBX7 inh: 1.1; CBX7 inh z-score: 1.5

What do the screens show for `CC(C)Oc1ccc(C(=O)Nc2c3c(nn2-c2ccc(Cl)cc2)CSC3)cc1`?
CBX7 inh: 0.89; CBX7 inh z-score: -1.9

What do the screens show for `COc1cccc(Nc2nc(-c3ccc(C)cc3)nc3ccccc23)c1`?
CBX7 inh: 1.4; CBX7 inh z-score: 17

In the list so far, nine have sulfur.
How did COc1ccc(Br)cc1CNC(=O)c1ccc2nc(N3CCOCC3)sc2c1 do in these assays?
CBX7 inh: 1; CBX7 inh z-score: 1.1

What do the screens show for `CC(C)Cc1cc(C(=O)NCc2cccs2)no1`?
CBX7 inh: 1; CBX7 inh z-score: 0.89

How did COc1ccc2cc(CCNS(=O)(=O)c3ccc(C)cc3)c(=O)[nH]c2c1 do in these assays?
CBX7 inh: 1; CBX7 inh z-score: 0.28

Results for Cc1ccccc1CN1C(=O)c2ccccc2Sc2ccc(C(=O)NC3CCCC3)cc21 ?
CBX7 inh: 0.99; CBX7 inh z-score: -0.31

How did CC(CCc1ccccc1)NC(=O)CN1C(=O)COc2ccc(S(=O)(=O)N3CCOCC3)cc21 (stereo not drawn) do in these assays?
CBX7 inh: 1.1; CBX7 inh z-score: 3.2

What do the screens show for `Cc1ccc(N(CC(=O)NCCc2ccc(Cl)cc2)S(=O)(=O)c2cccnc2)cc1`?
CBX7 inh: 1; CBX7 inh z-score: 0.38

What do the screens show for `COc1ccc(-n2c(Cc3cc(=O)[nH]c(=O)[nH]3)nnc2SCC(=O)Nc2nc(C)cs2)cc1`?
CBX7 inh: 0.95; CBX7 inh z-score: -1.3

How did COc1ccc(-c2nc(CS(=O)(=O)CC(=O)NCCCN3CCN(C)CC3)c(C)o2)cc1 do in these assays?
CBX7 inh: 1.1; CBX7 inh z-score: 1.5

What do the screens show for `CC(C)Oc1ccc(C(=O)Nc2c3c(nn2-c2ccc(Cl)cc2)CSC3)cc1`?
CBX7 inh: 0.89; CBX7 inh z-score: -1.9

The list goes on.
Results for CC(C)n1c(C(O)c2ccc(N(C)C)cc2)nc2ccccc21 (stereo not drawn) ?
CBX7 inh: 0.84; CBX7 inh z-score: -4.2

How did COc1cc(Cl)c(C)cc1NC(=O)Cc1c(C(=O)O)[nH]c2ccc(Cl)cc12 do in these assays?
CBX7 inh: 0.95; CBX7 inh z-score: -0.49

Results for CCC(C)C(NS(=O)(=O)c1ccc(C)cc1)C(=O)O (stereo not drawn) ?
CBX7 inh: 1.2; CBX7 inh z-score: 2.4

How did Cc1ccc2nc(-c3ccc(Cl)s3)c(Nc3ccc4c(c3)OCCO4)n2c1 do in these assays?
CBX7 inh: 1.2; CBX7 inh z-score: 1.6

How did O=C1c2ccccc2S(=O)(=O)N1c1ccccc1F do in these assays?
CBX7 inh: 1; CBX7 inh z-score: 0.73

Results for CCCNC(=O)C1CCN(c2nn3c(=O)cc(C)nc3s2)CC1 ?
CBX7 inh: 0.99; CBX7 inh z-score: -0.46

What do the screens show for `O=C(CC(c1ccccc1)c1ccccc1O)NCC1(c2ccccc2)CCOCC1` (stereo not drawn)?
CBX7 inh: 1.1; CBX7 inh z-score: 0.3

What do the screens show for `COc1ccc2nc(C)cc(Nc3cccc(O)c3)c2c1`?
CBX7 inh: 1.4; CBX7 inh z-score: 4.9

How did O=C(NCCC1=CCCCC1)C1C2C=CC3(CN(Cc4ccccc4Cl)C(=O)C13)O2 (stereo not drawn) do in these assays?
CBX7 inh: 1; CBX7 inh z-score: 1.6

How did CCN1C(=O)CC(c2ccccc2)Sc2ccccc21 (stereo not drawn) do in these assays?
CBX7 inh: 1.2; CBX7 inh z-score: 2.9

Results for O=S(=O)(Nc1cccc(Cl)c1)c1cnc[nH]1 ?
CBX7 inh: 1; CBX7 inh z-score: 0.83

What do the screens show for `COc1ccc(-c2nn(C)c3sc(C(=O)N4CCN(c5ccccc5)CC4)cc23)cc1OC`?
CBX7 inh: 0.85; CBX7 inh z-score: -4.3

What do the screens show for `CCOC(=O)c1c(NC(=O)c2ccc(OC)cc2)sc2c1CCC(C#N)(c1ccccc1)C2` (stereo not drawn)?
CBX7 inh: 1.1; CBX7 inh z-score: 3.3

What do the screens show for `O=C(CCn1nc(-c2ccccc2)ccc1=O)NC1CCCCC1`?
CBX7 inh: 1.2; CBX7 inh z-score: 0.31

How did CCN(C(=O)c1ccc2c(=O)n3c(nc2c1)CCCCC3)c1ccccc1 do in these assays?
CBX7 inh: 0.83; CBX7 inh z-score: -2.8

Results for Cc1nc2nc(SCC(=O)NCc3ccccc3)nn2c(C)c1Cc1ccccc1 ?
CBX7 inh: 1.5; CBX7 inh z-score: 2

Results for CCOc1ccccc1NC(=O)CN(C)S(=O)(=O)c1ccc2nc(C)sc2c1 ?
CBX7 inh: 1.1; CBX7 inh z-score: 0.33

What do the screens show for `CN(C)S(=O)(=O)c1ccc(C(=O)NCC(C)(C)CN=C2NS(=O)(=O)c3ccccc32)cc1`?
CBX7 inh: 1.1; CBX7 inh z-score: 0.92

What do the screens show for `COc1ccc(C(=O)NC(C)C(c2cccs2)N2CCN(c3ccc(F)cc3)CC2)cc1` (stereo not drawn)?
CBX7 inh: 0.91; CBX7 inh z-score: -2.8

Results for CCN(CC)C(=O)C1CCN(c2cc(C)nc3c(-c4ccc(OC)c(OC)c4)c(C)nn23)CC1 ?
CBX7 inh: 0.96; CBX7 inh z-score: -0.088

What do the screens show for `O=C(CN1CCCCC1)Nc1c2c(nc3ccccc13)CCCC2`?
CBX7 inh: 0.9; CBX7 inh z-score: -0.98

What do the screens show for `Cc1cccc(NC(=O)C2CCN(C(=O)c3cnn(-c4ccccc4)c3-n3cccc3)CC2)c1C`?
CBX7 inh: 1; CBX7 inh z-score: 0.016

Results for CCOCCn1cnc2sc(C(=O)Nc3ccccc3OCC)c(C)c2c1=O ?
CBX7 inh: 1; CBX7 inh z-score: 0.0047

How did Cc1noc(C)c1S(=O)(=O)N(C)CC(=O)NC1CCCCC1 do in these assays?
CBX7 inh: 1.2; CBX7 inh z-score: 2.1

An excerpt from above in order of molar mass, highest first.
Results for CCOc1ccccc1NC(=O)CN(C)S(=O)(=O)c1ccc2nc(C)sc2c1 ?
CBX7 inh: 1.1; CBX7 inh z-score: 0.33

Results for CCC(C)C(NS(=O)(=O)c1ccc(C)cc1)C(=O)O (stereo not drawn) ?
CBX7 inh: 1.2; CBX7 inh z-score: 2.4

What do the screens show for `CC(C)Cc1cc(C(=O)NCc2cccs2)no1`?
CBX7 inh: 1; CBX7 inh z-score: 0.89

(next part)
How did CCOC(=O)c1ccccc1NC(=O)Cn1nc(Cc2ccncc2)c2ccccc2c1=O do in these assays?
CBX7 inh: 0.99; CBX7 inh z-score: -0.47

How did Cc1ccccc1OCC(=O)Nc1ncc(Cc2cccc(C(F)(F)F)c2)s1 do in these assays?
CBX7 inh: 1.1; CBX7 inh z-score: 0.45

How did CCOc1ccc2nc(N3CCC(C(=O)Nc4ccc(C)cc4)CC3)sc2c1 do in these assays?
CBX7 inh: 0.98; CBX7 inh z-score: -0.025

What do the screens show for `CCC(CC)C(=O)NCCc1cc2ccc(OC)cc2[nH]c1=O`?
CBX7 inh: 1; CBX7 inh z-score: 0.083

How did CN1CCN(C(=O)CCc2nc(-c3ccccc3F)no2)CC1 do in these assays?
CBX7 inh: 1.1; CBX7 inh z-score: 1.2

How did COc1ccc(CCN2C(=O)C(Oc3ccccc3C)C2c2cccc(F)c2)cc1OC (stereo not drawn) do in these assays?
CBX7 inh: 0.94; CBX7 inh z-score: -2.1

Results for O=C(CSc1nccn1-c1ccccc1)Nc1cc(C(F)(F)F)ccc1Cl ?
CBX7 inh: 0.58; CBX7 inh z-score: -9

Results for CN(CC(=O)N1CCc2ccccc21)S(=O)(=O)c1cccc2cccnc12 ?
CBX7 inh: 0.85; CBX7 inh z-score: -1.7

How did CC(CCc1ccccc1)NC(=O)CCc1nc(-c2ccccc2F)no1 (stereo not drawn) do in these assays?
CBX7 inh: 1; CBX7 inh z-score: 0.96

What do the screens show for `Cc1c(Cl)cccc1NS(=O)(=O)c1ccc2[nH]cc(C(=O)NC3CCCCC3C)c(=O)c2c1` (stereo not drawn)?
CBX7 inh: 1; CBX7 inh z-score: 0.6

How did O=C1CCCc2c1cc(C(=O)Nc1ccc(Cl)cc1)c(=O)n2-c1ccccc1 do in these assays?
CBX7 inh: 1.3; CBX7 inh z-score: 1.3

What do the screens show for `Cc1cccc(OCC(=O)Nc2nc(-c3ccccc3)cs2)c1`?
CBX7 inh: 1.2; CBX7 inh z-score: 0.44

How did O=C(Cn1c(SCc2ccc(F)cc2)nc2ccncc21)Nc1ccccc1C(F)(F)F do in these assays?
CBX7 inh: 0.97; CBX7 inh z-score: -1.6

How did O=C(NCC1CCCO1)c1ccc2c(c1)N(Cc1ccccc1)C(=O)c1ccccc1S2=O (stereo not drawn) do in these assays?
CBX7 inh: 1.1; CBX7 inh z-score: 1.8

Results for CCOC(=O)N1CCN(c2c(NC(C)(C)C)c(=O)c2=O)CC1 ?
CBX7 inh: 1; CBX7 inh z-score: 0.71

How did Cc1ccc(NC(=O)CCc2nc3ccccc3[nH]2)cc1Cl do in these assays?
CBX7 inh: 1.1; CBX7 inh z-score: 2.5

What do the screens show for `Fc1ccc(-c2cc(C(F)(F)F)nc(-n3cncn3)n2)cc1`?
CBX7 inh: 1.1; CBX7 inh z-score: 3

How did Cc1ccc2c(c1)N(CCC(=O)NCc1ccccc1)C(=O)CO2 do in these assays?
CBX7 inh: 1; CBX7 inh z-score: 0.076

What do the screens show for `CCCn1c(C(O)c2ccc3c(c2)OCO3)nc2ccccc21` (stereo not drawn)?
CBX7 inh: 1&1; CBX7 inh z-score: 0.26&0.15

How did Cc1ccccc1OCc1nc(-c2ccc(Cl)cc2)no1 do in these assays?
CBX7 inh: 1.9; CBX7 inh z-score: 14

Source: PubChem BioAssay
